# nsP2pro inh: CHIKV nsP2 protease inhibition, primary qHTS. FRET peptide cleavage, nsP2pro, fluorescence 1 h. 31,000 compounds, 1.1% hits. Potency, µM (highest dose often 24.9 µM), without a hit: at the top dose activity change, negative = inhibition, usual class: inhibitors. AID 1964107; active means well fitted inhibition curve with a large enough effect; inconclusive means small, poorly fitted or top-dose-only effect; inactive means no such curve, though single readings can be large or run the other way; note: nearly all actives have a fitted effect of over 60% in size; a reference inhibitor and vehicle were the controls
# Numbers without * were called inactive; i = inactive; ? = inconclusive; & = joins results of further samples; [ ] = dose if it differs, or a comment. % is set by controls: 0 for no effect and ±100 for the full control effect; potency is the fitted concentration of half-maximal effect. An excerpt; count on the stated rates, not on these rows.
SMILES,nsP2pro inh
COc1cc([C@@H]2c3cc4c(cc3[C@@H](O[C@@H]3O[C@@H]5CO[C@@H](C)O[C@H]5[C@H](O)[C@H]3O)[C@H]3COC(=O)[C@H]23)OCO4)cc(OC)c1OP(=O)(O)O,?
C=C1C(=O)OC2/C=C(/C)C3=CC(=O)C(C)(CC(OC(=O)/C(C)=C/COC(C)=O)C12)O3 (centres undefined),-5.8%[10 µM]
CCCSc1ncc(Cl)c(C(=O)N(Cc2ccccc2)c2ccc(OC)cc2)n1,-1.6%
O=C(NCc1ccnc2[nH]ccc12)c1ccc(Cl)cc1,14.1µM*
O=C(CC1Oc2ccccc2NC1=O)NCc1ccc(F)cc1 (centres undefined),-18.3%
CC(C)Nc1cc(-c2c[nH]c(C(=O)N[C@H](CO)c3cccc(Cl)c3)c2)c(Cl)cn1,5.6%
CCCN1C(=O)C(Cc2nc3ccccc3c(=O)n2CC)c2ccccc21 (centres undefined),-10.4%
O=C(CSc1nc2ccccc2n1Cc1c(F)cccc1Cl)N1CCN(c2ccc(F)cc2)CC1,-14.4%
O=C1c2cccc3c2[C@H](CCC3)CN1[C@@H]1CN2CCC1CC2,-9.1%
CCOc1ccc(-c2nc3c(C#N)c[nH]n3c2NC2CCCC2)cc1,?
CNC(=O)c1cc(C2CC2)nc2c1c(C1CCCN([S+](=O)([O-])c3c(C)noc3C)C1)nn2C (centres undefined),0.9%
CCn1c2c(c(=O)n1-c1ccccc1)CCN(C(=O)C1CCC1)C2,i

# A second format for part of the listing above:
SMILES	nsP2pro inh
O=C(CC1Oc2ccccc2NC1=O)NCc1ccc(F)cc1 (centres undefined)	-18.3%
CC(C)Nc1cc(-c2c[nH]c(C(=O)N[C@H](CO)c3cccc(Cl)c3)c2)c(Cl)cn1	5.6%
CCCN1C(=O)C(Cc2nc3ccccc3c(=O)n2CC)c2ccccc21 (centres undefined)	-10.4%
O=C(CSc1nc2ccccc2n1Cc1c(F)cccc1Cl)N1CCN(c2ccc(F)cc2)CC1	-14.4%
O=C1c2cccc3c2[C@H](CCC3)CN1[C@@H]1CN2CCC1CC2	-9.1%
CCOc1ccc(-c2nc3c(C#N)c[nH]n3c2NC2CCCC2)cc1	?
CNC(=O)c1cc(C2CC2)nc2c1c(C1CCCN([S+](=O)([O-])c3c(C)noc3C)C1)nn2C (centres undefined)	0.9%

# New compounds follow
SMILES,nsP2pro inh
CC(NC(=O)C(=O)Nc1c2c(nn1-c1ccc(F)cc1)CSC2)c1ccccc1 (centres undefined),0.7%
O=C(COc1ccccc1)NCc1ccc2c(c1)CCN2C(=O)c1ccc(F)cc1,4.9%
COC(=O)[C@@H](NC(=O)[C@H](CC(C)C)NC(=O)N(Cc1ccccc1)C[C@@H](O)[C@H](Cc1ccccc1)NC(=O)OC(C)(C)C)C(C)C,12.9%[5.1 µM]
O=C(O)CCCC[C@@H]1SC[C@@H]2NC(=O)N[C@@H]21,4.4%
Cc1cccc2nc(-c3ccco3)c(Nc3ccc4c(c3)OCO4)n12,55.4%[activator]
CC1CS(=O)(=O)CCN1/N=C/c1ccc([N+](=O)[O-])o1 (centres undefined),?
C/C(=C\C1CCC(C)C2CCC3(C)OC123)C(=O)O (centres undefined),9.6%
O=C(O)c1ccc(-c2noc(-c3ccc(F)cc3)n2)cc1,1.3%
CN1CCN(c2ncc3c(n2)CCN(Cc2ccccc2Cl)C3)CC1,?
CC(=O)N1c2c(cc(Br)cc2S(=O)(=O)NCc2ccccc2Cl)CC1C (centres undefined),-22.2%
CCOC(=O)N1CCc2c(sc(NCc3ccc(N(C)C)cc3)c2C(=O)Nc2ccc(OC)cc2)C1,?
CCCN1Cc2cccc(C(=O)Nc3ccc(C(C)=O)cc3)c2C1=O,-14.6%
O=C(Nc1cn[nH]c1-c1nc2ccc(CN3CCOCC3)cc2[nH]1)NC1CC1,-0.2%
C=C1CCC(OC(C)=O)C2(C)CC3(O)OC(=O)C(C)=C3CC12 (centres undefined),-12.4%
CCn1c(-c2ccccc2)nn(CC(=O)NCc2ccsc2)c1=O,i
O=S1(=O)OC(c2ccc(O)cc2)(c2ccc(O)cc2)c2ccccc21,-1.6%
NC(=O)c1ccc(F)c2c1C[C@@H](N(C1CCC1)C1CCC1)CO2,-8.2%
Cn1c([C@H]2CCN(Cc3ccc4c(c3)OCO4)C2)nc2ccccc21,i
CC(C)(C)OC(=O)N1CCN(c2ccc(NCc3ccnc(-c4ccc(C#N)cc4)n3)cc2)CC1,i
Cc1ccc(-c2cnc(C3CC3)o2)cc1S(=O)(=O)Nc1cccc(C#N)c1,18.6%
Clc1ccc(Cn2c(Cc3ccccc3)nc3ccccc32)cc1,0.4%
Cc1ccc2cccc(NC(=O)c3ccc(-c4cc(Cl)ccc4Cl)o3)c2n1,-15.2%
C[C@]1(O)CCN(C(=O)c2cc(-c3ccsc3)n[nH]2)C[C@@H]1O,-3.2%
Cn1cc(CCC(=O)N[C@@H]2CCOC[C@H]2Oc2ccc(C(=O)O)cc2)cn1,-19.6%
COc1ccc(NC(=O)CSc2c3c(nc4ccccc24)CCC3)cc1Cl,-6.7%
N#CNC(=O)c1ccc(-n2cccc2/C=C2\NC(=O)N(CC(=O)Nc3ccc(F)cc3)C2=O)cc1,-0.4%
CC(=O)/C=C/[C@H]1[C@](C)(O)[C@@H](O)[C@H](OC(C)=O)C2C(C)(C)CCC[C@@]21C (some centres undefined),-1.1%
CCCC(C)N1CC2(CCN(C(=O)c3ccc(C(C)=O)s3)CC2)OC1=O (centres undefined),-13.6%
CCCCCCCCCCCC(=O)OCC(O)CO (centres undefined),-8.7%
CCNc1ncc(C(=O)N[C@H](C2CCNCC2)C2CC(O)C2)cn1 (some centres undefined),-4.4%
COc1ccc2cc(C(=O)N3CC(N(Cc4cccnc4)S(C)(=O)=O)C3)[nH]c2c1,25.3%
COc1cc(NC(=O)c2cc(-c3cccs3)on2)c(OC)cc1Cl,17.0%
C/C(CO)=C1/CCC23COC(C2)C(O)(C(=O)O)CCC13 (centres undefined),-4.9%
CN(C)[C@@H]1C[C@H](CO)[C@@H](O)[C@H]1O,2.6%[39.2 µM]
COc1ccc(-c2cc3nc(N)cc(=O)n3[nH]2)cc1,-2.9%
O=C(Nc1nc2ccc([N+](=O)[O-])cc2s1)C1CCCCC1,5.3%

# A different layout for part of the listing above:
SMILES	nsP2pro inh
CCCC(C)N1CC2(CCN(C(=O)c3ccc(C(C)=O)s3)CC2)OC1=O (centres undefined)	-13.6%
CCCCCCCCCCCC(=O)OCC(O)CO (centres undefined)	-8.7%

# Next part
SMILES,nsP2pro inh
O=C(O)[C@H]1C[C@H](C(=O)NCc2ccncc2)CN(C(=O)C2CCCC2)C1,?
C/C(=C\Cc1c(O)c(Cl)c(C)c(C=O)c1O)CC/C=C(\C)[C@H]1CC(=O)C(C)(C)O1,?
COc1cc2ccccc2cc1C(=O)N1CCN(c2nc3ccc(F)cc3s2)CC1,-17.8%
Cn1ccnc1CN1CCOc2cc([S+](=O)([O-])Nc3ccccc3)ccc2C1,i
Cc1oc2ccn(Cc3cccc(F)c3)c(=O)c2c1C(=O)NC1CCCC1,i
O=C(c1ccc(Br)cc1)N1CCN(c2cc(-c3ccccc3)[nH]n2)CC1,-14.1%
COc1ccc2cc(C(=O)NCc3ccc4c(c3)CCN4C(=O)c3ccc(F)cc3)[nH]c2c1,-11.7%
C=C1[C@@H](C)[C@H]2[C@H](Cc3c[nH]c4ccccc34)NC(=O)[C@]23C(=O)/C=C/C(=O)[C@H](O)/C(C)=C\[C@@H](C)C/C=C/[C@H]3[C@@H]1O,?
Cc1ccc(-c2nc(-c3cc4cccc(OCc5ccccc5F)c4oc3=O)no2)cc1,-17.9%
O=C(CCc1ccc(=O)[nH]n1)N1CCC2(CCCNC2=O)C1 (centres undefined),11.2%
O=C(OCC#CCSc1nnc(-c2cccs2)o1)c1ccc(F)cc1,4.9%
O=C(Nc1cc(C(F)(F)F)cc(C(F)(F)F)c1)c1cc(Cl)ccc1O,141.2%[activator]
C[C@]12CCC(=O)C=C1[C@@H](O)C[C@@H]1[C@@H]2[C@@H](O)C[C@@]2(C)[C@H]1CC[C@]2(O)C(=O)CO,0.0%
O=[S+]([O-])(c1cccs1)N1CCN(c2nc3ncccc3o2)CC1,i
Nc1nc2c(c(=O)[nH]1)N(C=O)C(CNc1ccc(C(=O)N[C@@H](CCC(=O)O)C(=O)O)cc1)CN2 (some centres undefined),6.0%[0.199 µM]
CCC(=O)c1ccc2c(c1)N(CCCN(C)C)c1ccccc1S2,14.0%
COC(=O)CCC1(C)C(C(C)(C)O)C(O)CC2(C)Oc3c(C)c4c(c(OC)c3CC21)C(=O)OC4 (centres undefined),?
Cc1nn2c(c1-c1ccccc1C(C)C)N(C(=O)c1cnccn1)CCC2,3.5%[39.2 µM]
COc1cc(/C=C/c2nc3ccccc3c(=O)n2-c2ccc(Br)c(C)c2)ccc1O,-10.3%
O=C(NCCSc1c[nH]c2ccccc12)c1ccccc1Cl,-9.9%
COc1c(C)c(OCC=C(C)C)cc2c1C(=O)NC2=O,-12.6%
COC(=O)C1=COC(C)C2CN3CCC4(C(=O)Nc5ccccc54)C3CC12 (centres undefined),-11.7%
CCOc1ccccc1Oc1nc(C)nc2c1oc1ccccc12,-3.8%
CC(=O)NCc1cn[nH]c1-c1ccc(Cl)cc1,i
CN1CCCC1c1nc(C2CN(C(=O)c3ccsc3)C2)no1 (centres undefined),-0.2%
CCN(Cc1ccccc1)C(=O)Cn1c(=O)n(Cc2ccccc2)c(=O)c2c1c1cc(OC)ccc1n2C,-18.8%
CCc1nnc2ccc(NC3CC3)nn12,-6.4%
CCC(Sc1nc2nccnc2c(=O)n1Cc1ccccc1Cl)C(=O)NC1CCCCC1 (centres undefined),-19.7%
CNC(=O)c1cnc2sc(N3CCCCCC3)nn2c1=O,-11.2%
COc1ccc(Cl)cc1-n1nnc(-c2nc(-c3ccc4c(c3)OCO4)no2)c1C,-14.1%
O=C(Nc1nnc(SCc2cc(=O)c3ccccc3[nH]2)s1)c1ccccc1,-16.1%
CCOc1ccc(CCNC(=O)c2nn(C)c3c2CSc2ccc(C)cc2-3)cc1OCC,-11.1%
Cc1c(C)n(Cc2ccc(F)cc2)c2ccc(C(=O)N3CCN(c4ccc(Cl)cc4)CC3)cc12,-8.5%
OC(CN1CCCCC1)c1cc(-c2ccccc2)on1 (centres undefined),-21.4%
Cc1ccc2c(=O)cc(C(=O)Nc3c(C)n(C)n(-c4ccccc4)c3=O)oc2c1C,-27.9%
CSc1ccc(CCNC(=O)c2ccc(CS(=O)Cc3ccc(Cl)cc3)o2)cc1 (centres undefined),-13.2%
O=C(CSc1nc(=O)n(Cc2ccncc2)c2c1CCC2)Nc1ccc(F)cc1F,-25.0%
Cc1ccsc1CN1CCCC(O)(CN(C)C)C1 (centres undefined),i
CCC1CN(C(=O)Nc2ccccc2C(F)(F)F)c2ccccc2O1 (centres undefined),-25.4%
CCc1cc(C(=O)Nc2cnn(Cc3ccc(F)cc3)c2)no1,-19.8%
COc1ccccc1CNC(=O)c1cnn(-c2ccc(F)cc2F)c1C1CCN(C(=O)OC(C)(C)C)CC1,-7.4%
CS(=O)(=O)N1CC(F)(F)C[C@H]1c1nc(C2CC2)no1,i
CN(Cc1cccs1)c1nc(-c2ccccc2C(F)(F)F)nc2ccccc12,4.3%
CCCNC(=O)OC[C@H]1C[C@@H]2CCN1C[C@@H]2c1cc(C(CC)CC)nc(-c2ccncc2)n1,?
CC1(C)CCC(c2ccc(Cl)cc2)=C(CN2CCN(c3ccc(C(=O)NS(=O)(=O)c4ccc(N[C@H](CCN5CCOCC5)CSc5ccccc5)c(S(=O)(=O)C(F)(F)F)c4)cc3)CC2)C1,-10.2%
Cc1ccccc1OCC(=O)N1CCN(CCc2ccccn2)CC1,-24.5%
Cc1ccc(S(=O)(=O)NC(N)=NCCC[C@@H](N)C(=O)Nc2cc(C(F)(F)F)ccc2Cl)cc1,-2.4%
O=C(Cn1cc(SCc2c(F)cccc2Cl)c2ccccc21)N1CCCC1,-26.3%
Fc1cnc(-c2ccccc2C(F)F)nc1NCC1CCN(c2cnccn2)C1 (centres undefined),-0.2%
Cc1ccc(N2CC(c3nc4ccccc4n3CCC3CCCCC3)CC2=O)cc1 (centres undefined),-15.9%
S=C(Nc1ccc(Cl)c(Cl)c1)Nc1nnc(-c2ccncc2)s1,i
O=C(Nc1ccc2c(c1)OCO2)c1cc(-c2ccc(Cl)cc2)on1,-11.7%
CCN(C(=O)Cn1c(C(=O)OC)cc2sccc21)c1cccc(C)c1,-18.6%
COc1cc(OC)c(NC(=O)Cn2cnc3c(nc4n3CCCCC4)c2=O)cc1Cl,-18.8%
COC(=O)c1ccccc1C(=O)N1CCNC(=O)C1Cc1ccccc1 (centres undefined),1.5%
CC1(c2noc(C3CC3)n2)CCN(C(=O)CCCc2nc3ccccc3s2)CC1,-24.5%
CC(=O)OCC(CCn1cnc2cnc(N)nc21)COC(C)=O,-9.1%&-3.4%
CCN1C(=O)c2ccccc2Sc2ccc(NC(=O)Nc3cccc([N+](=O)[O-])c3C)cc21,1.7%
COCCN1C(=O)c2[nH]nc(-c3ccccc3O)c2C1c1ccc(Cl)c(Cl)c1 (centres undefined),14.8%
FC(F)(F)c1ccccc1-c1nc(NCc2ccc(-c3cccnc3)cc2)c2[nH]cnc2n1,4.8%
# Other structures follow.
SMILES,nsP2pro inh
CCc1ccc(-c2ccc(C(=O)Oc3ccc(Br)cc3)cc2)nc1,9.5%
CCOc1cc(Cl)c(S(=O)(=O)n2ccnc2)cc1Cl,77.6%[activator]
Cc1ccc2c(c1)c1c(c(=O)n(-c3ccccc3C)c(=O)n1CC(=O)N1CCCC1)n2C,-18.0%
Cc1nc(NCc2ccccc2)c2nc(-c3ccccc3)n(CCCN3CCCCC3C)c2n1 (centres undefined),4.1%
CC(C)CCN1C(=O)CC[C@H]2CN(C(=O)Cn3ccc(=O)[nH]c3=O)CC[C@H]21,1.1%
O=C(CC1=CCCCC1)N1CC(F)(F)C[C@H]1c1nc(C2CC2)no1,3.2%
Cc1nc([C@@H]2CN(C(=O)c3ccc(Cn4ccnc4)o3)C[C@H]2C(N)=O)n[nH]1,i

# Compound activity deposited in PubChem BioAssay by National Center for Advancing Translational Sciences (NCATS).
